Vero: Vero cell cytotoxicity, dose response, cytotoxicity control for Vif-APOBEC3G degradation inhibitor project, Vero cells (AID 1117358). CC50 in µM for hits, for the others viability, % at the top dose, mostly 40 µM. hit rate 7% among 2,300. Vero viability, CellTiter-Glo ATP luminescence, 72 h; reference of the scale not given here;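 active means viability down to 80% or less at some dose; inactive means above 80% at all doses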
Active calls of the source: *. A portion of the library, so the mix of outcomes need not match the whole.

SMILES	Vero
O=S(=O)(c1ccc(F)cc1)N(CCO)CC(O)Cn1c2ccccc2c2ccccc21 (stereo not given)	98%
CCN1C(=O)c2ccccc2S(=O)c2ccc(C(=O)N3CCCC3)cc21 (stereo not given)	99%
CSc1oc(-c2ccccc2)nc1S(=O)(=O)c1ccc(C)cc1	117%
Cc1nc(N2CCN(Cc3ccccc3)CC2)nc2c1C(=O)CCC2	97%
COc1ccc(S(=O)(=O)N2CCC(C(=O)NCc3ccco3)CC2)cc1	107%
CNc1cccccc1=S	97%
COc1cc2c(cc1OC)C(C(=O)O)C(c1cc(Br)c(O)c(OC)c1)N(C)C2=O (stereo not given)	100%
CCn1cc(Br)c(C(=O)Nc2cccc(SC)c2)n1	86%
COCc1cc(C)nc(NCCO)c1C#N	90%
Cc1cccc(NC(=O)Cn2c(=O)n(Cc3ccco3)c(=N)c3c4c(sc32)COC(C)(C)C4)c1	104%

Taken from above.
CCn1cc(Br)c(C(=O)Nc2cccc(SC)c2)n1 | Vero: 86%
Cc1nc(N2CCN(Cc3ccccc3)CC2)nc2c1C(=O)CCC2 | Vero: 97%
CNc1cccccc1=S | Vero: 97%
O=S(=O)(c1ccc(F)cc1)N(CCO)CC(O)Cn1c2ccccc2c2ccccc21 (stereo not given) | Vero: 98%
CSc1oc(-c2ccccc2)nc1S(=O)(=O)c1ccc(C)cc1 | Vero: 117%
COc1cc2c(cc1OC)C(C(=O)O)C(c1cc(Br)c(O)c(OC)c1)N(C)C2=O (stereo not given) | Vero: 100%
COCc1cc(C)nc(NCCO)c1C#N | Vero: 90%
COc1ccc(S(=O)(=O)N2CCC(C(=O)NCc3ccco3)CC2)cc1 | Vero: 107%

Later entries.
SMILES	Vero
CCn1ncc(Br)c1C(=O)Nc1sc2c(c1C(N)=O)CCC2	106%
CCOC(=O)CNc1nc(-c2ccncc2)nc2ccccc12	86%
COC(=O)COc1ccc(S(=O)(=O)Nc2cc(OC)ccc2OC)cc1	98%
COc1c(OC(C)=O)ccc(/C=C/c2ccc3ccccc3n2)c1[N+](=O)[O-]	33µM*
COc1cccc(-c2nn(C)c3sc(C(=O)Nc4ccc5c(c4)OCCO5)cc23)c1	>40µM*
O=C(/C=C/c1ccco1)NC(=S)Nc1ccccc1N1CCOCC1	95%
CCOc1ccc2[nH]c(=O)c(CN(Cc3ccco3)C(=O)c3ccc(Br)cc3)cc2c1	32µM*
Cc1cccc(-n2c(=O)cc(N3CCN(c4ccc(F)cc4)CC3)[nH]c2=O)c1	93%
COC(=O)C1=C(Nc2ccc(OC)cc2)C=C(C)C(C(=O)OC)C1c1ccc(C)cc1 (stereo not given)	90%
CCOc1cccc(=O)c2c(C)oc(C)c12	96%
O=C1CC(c2ccco2)CC(O)=C1C=Nc1cc(Cl)cc(Cl)c1 (stereo not given)	93%
CC(C)Oc1ccc2ccccc2c1C=O	91%
Cc1cc(Nc2ccc(C)c(C)c2)n2nc(C)nc2n1	93%
Nc1c2c(nc3ccccc13)CCC2	100%
CCOc1ccc(C2=[N+]([O-])C(C)(C)N(O)C2(C)C)cc1	94%
CCOC(=O)C1=C(c2ccccc2)N=c2s/c(=C\c3ccco3)c(=O)n2C1c1cccs1 (stereo not given)	94%
O=C(O)c1ccccc1NS(=O)(=O)c1ccccc1C(F)(F)F	89%
C/C(=C1\SC(N2CCOCC2)=NC1=O)c1ccccc1	101%
Cc1cc(C(F)(F)F)n2nc(C(=O)O)c(Cl)c2n1	99%
O=C(CSc1nnc(-c2cccnc2)n1C1CCCCC1)NC1CCCCC1	91%
COc1ccc(S(=O)(=O)NCc2ccccn2)c(Cl)c1Cl	87%
O=C(O)c1ccc2c(c1)C(c1ccccc1)OC2=O (stereo not given)	99%
O=S(=O)(c1ccccc1)N1CCN(S(=O)(=O)N2CCCCC2)CC1	96%
CC(=O)Nc1nnc(C)s1	98%
CCOC(=O)C1CCN(C(=O)c2ccc(Cl)c(S(=O)(=O)N3CCOCC3)c2)CC1	93%
Oc1cccc(C=NCc2ccccc2)c1O	91%
COc1ccc2c(c1)c(=O)oc1cc(OCC(=O)N3CCC(C)CC3)ccc12	98%
COc1ccc(OC)c(-c2cc(C(=O)NCc3cccs3)no2)c1	103%
CSCCC(NC(N)=O)C(=O)NCc1ccc(Cl)cc1 (stereo not given)	102%
Cc1ccc(S(=O)(=O)n2cnc3ccccc32)c(C)c1	99%

Fetched by structure from above (10):
SMILES	Vero
Oc1cccc(C=NCc2ccccc2)c1O	91%
CSCCC(NC(N)=O)C(=O)NCc1ccc(Cl)cc1 (stereo not given)	102%
COc1ccc(OC)c(-c2cc(C(=O)NCc3cccs3)no2)c1	103%
COc1ccc(S(=O)(=O)NCc2ccccn2)c(Cl)c1Cl	87%
CCOC(=O)C1CCN(C(=O)c2ccc(Cl)c(S(=O)(=O)N3CCOCC3)c2)CC1	93%
Cc1ccc(S(=O)(=O)n2cnc3ccccc32)c(C)c1	99%
O=S(=O)(c1ccccc1)N1CCN(S(=O)(=O)N2CCCCC2)CC1	96%
CC(=O)Nc1nnc(C)s1	98%
O=C(O)c1ccc2c(c1)C(c1ccccc1)OC2=O (stereo not given)	99%
COc1ccc2c(c1)c(=O)oc1cc(OCC(=O)N3CCC(C)CC3)ccc12	98%

(further entries)
SMILES	Vero
O=C1/C(=C\c2ccco2)SC(=S)N1c1ccccc1	97%
CC1=Nc2cccc3cccc(c23)N1	99%
CCC(Sc1nc2c(c(=O)n1CC)SC(C)C2)C(=O)OC (stereo not given)	99%
CCS(=O)(=O)N1CCC(C(=O)NCc2ccccn2)CC1	98%
Cc1nc2ncccn2c1-c1csc(NCc2ccco2)n1	103%
CCOc1ccc(C(=O)N2CCCN(C(=O)c3ccc(OCC)cc3)CC2)cc1	99%
O=S(=O)(c1cccc2ccccc12)n1nnc2ccccc21	94%
O=S(=O)(c1ccc(S(=O)(=O)N2CCCC2)cc1)N1CCCCCC1	101%
O=S(=O)(c1ccc(Br)s1)N1CCCCC1	93%
C=CCc1cc(/C=N\NC(=O)CSc2nnc(CCCc3ccc(OC)c(C)c3)o2)cc(OC)c1O	100%
O=C(Nc1ccccc1F)c1ccc(S(=O)(=O)NCC2CCCO2)cc1 (stereo not given)	93%
O=C(N/C(=C/c1ccc(Cl)cc1)c1nc2ccccc2[nH]1)c1ccco1	105%
CCOC(=O)C1CCCN(C(=O)c2ccc(CNc3c(N4CCC(C)CC4)c(=O)c3=O)cc2)C1 (stereo not given)	86%
O=C(O)c1ccc(COc2c(F)c(F)c(F)c(F)c2F)o1	96%
CCOC(=O)C1=C(CN2CCN(c3ccc(F)cc3)CC2)NC(=O)NC1c1cccs1 (stereo not given)	96%
CCCCn1c(CCNC(=O)CC)nc2ccccc21	99%
Cc1noc(/C=C/c2ccco2)c1S(=O)(=O)N1CCC(C(=O)NCc2ccco2)CC1	>40µM*
CCOC(=O)C1=C(C)NC2=C(C(=O)CC(C)(C)C2)C1c1ccsc1 (stereo not given)	99%
Cc1ccc(-n2nc(-c3ccc(N)cc3)cc2N)cc1	92%
CCn1c(SCC(=O)Nc2cc(C)on2)nnc1-c1cccnc1	106%

Arranged by molecular weight (descending): part of the list above.
SMILES	Vero
CCOC(=O)C1=C(CN2CCN(c3ccc(F)cc3)CC2)NC(=O)NC1c1cccs1 (stereo not given)	96%
O=C(Nc1ccccc1F)c1ccc(S(=O)(=O)NCC2CCCO2)cc1 (stereo not given)	93%
O=C(N/C(=C/c1ccc(Cl)cc1)c1nc2ccccc2[nH]1)c1ccco1	105%
CCn1c(SCC(=O)Nc2cc(C)on2)nnc1-c1cccnc1	106%
O=C(O)c1ccc(COc2c(F)c(F)c(F)c(F)c2F)o1	96%
CCCCn1c(CCNC(=O)CC)nc2ccccc21	99%

Going on with the list:
SMILES	Vero
CC1CCCC(NC(=O)Cn2cc3c(n2)CCCCC3)C1C (stereo not given)	98%
COc1ccc(/C=N/N=C2/NC(=O)C(c3ccccc3)S2)c(OC)c1 (stereo not given)	102%
Oc1ccccc1/C=N/c1c(-c2ccco2)nc2ccccn12	92%
CCOc1ccc(Nc2nc3ccccc3n3nnnc23)cc1	95%
CCOn1c(=O)c(=O)n(OCc2ccccc2)c2ccccc21	92%
CCc1ccc2nc(N3CCN(C)CC3)c(C#N)cc2c1	86%
CCN(C(=O)c1coc(=O)c(Br)c1)c1ccc2c(c1)OCO2	94%
CCn1c(C(=O)N2CCc3ccccc3C2)cc2sccc21	93%
O=C(NCc1cccc(F)c1)C1CCN(S(=O)(=O)Cc2ccccc2)CC1	95%
Cc1cccc(N(CC(=O)N/N=C/c2ccc(OCC(=O)NCc3ccco3)cc2)S(C)(=O)=O)c1C	109%
c1ccc2c(c1)ccc1nnc(SCc3ccc4c(c3)OCO4)n12	95%
Cc1ccc(-n2ncc(C#N)c2/N=C/N2CCCCCC2)cc1	106%
Cc1ccc[n+](CC(=O)c2cc3ccccc3oc2=O)c1	100%
Cn1c(NC(=O)c2cccs2)cc(=O)n(C)c1=O	93%
O=C(NCc1ccccc1)/C(=C/c1ccc(OC(F)F)cc1)c1ccccc1	35µM*
Cn1c(CN2CCCC2)nc2cc(NC(=O)Nc3ccccc3)ccc21	95%
O=C(CCCCCN1C(=O)CCC1=O)Nc1ccc(Cl)c(C(F)(F)F)c1	96%
CN1C(=O)C2(C(C#N)=C(N)Oc3c2oc(CO)cc3=O)c2ccccc21 (stereo not given)	87%
Cc1onc(-c2ccccc2)c1C(=O)N1CCCc2ccccc21	94%
CCN=c1scc(C)n1/N=C/c1ccc(O)c(O)c1O	90%
O=C1NC2(CCCCC2)NN1c1ccccc1	95%
COCCCNC(=O)c1cccn2c(=O)c3cc4ccccc4cc3nc12	95%
COc1cccc(N2C(=O)C3ON(c4ccccc4)C(c4cccs4)C3C2=O)c1 (stereo not given)	95%
COc1ccc(-n2nnnc2-c2ccccc2)cc1	>40µM*
CC1CCN(S(=O)(=O)c2cc(Br)cc(C(=O)NC3=NCCS3)c2)CC1	93%
COCCNC(=O)Cn1ncc2ccsc2c1=O	109%
Oc1ccc(N=Cc2ccc(O)c(O)c2)cc1	85%
Cc1ccc(C)c(-n2c(SCC(N)=O)nnc2-c2ccccn2)c1	91%
COc1ccc(Cl)cc1N(CC(=O)Nc1ccc2c(c1)OCCO2)S(C)(=O)=O	97%
